HSV augment: increases HSV replication in cells; 220,000 tested, 0.005% active; HSV replication augmentation in cells, fold increase; maximum fold increase;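 active = peak rise of 1.5-fold or more in the series; inconclusive = self-fluorescent or not available for retest; tested in PC3 cells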;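 note: first round at 10 µM; read as green reporter fluorescence; hits show the peak of a series up to 25 µM; 1 = signal of infected wells without compound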
Insulin prom inh: TRM-6 insulin promoter activity inhibition. 130,000 tested, 0.9% active. TRM-6 cells (human fetal islet line), insulin promoter-eGFP reporter, imaging; reporter expression induced with tamoxifen. inhibition, % at 2 µM. AID 1273;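 active = inhibition above the mean plus 3 SD, with well images judged a real hit on visual review, cut at about 60% in these data, passing the limit was not always enough; inconclusive = inhibition over the cutoff but images rejected on review; inactive = inhibition not above the cutoff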
PKD1 inh: inhibitors of human PKD1 kinase. Q15139. PKD1 kinase fluorescence polarization assay. inhibition, %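 (about 10 µM by stock and volumes)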. 200,000 tested, 0.056% active;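 active = inhibition of 50% or more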;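 note: controls were vehicle for no effect and a reference inhibitor for full effect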
RGS16-Gao HTS: regulators of human RGS16-Galphao interaction | O15492+P09471 | bead-based flow cytometry RGS16-Galphao binding, fluorescence; actives lie on both sides | binding response (% of control), % at 10 µM | 220,000 tested, 0.38% active;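 active = below 25% or above 175%, edge rows of some plates excepted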;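 note: Galphao activated by GDP with aluminum fluoride before binding; 100% = wells without compound and 0% = beads without RGS; some results beyond the cut were filed as inactive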
Target sequence (O15492 whole entry, looked up): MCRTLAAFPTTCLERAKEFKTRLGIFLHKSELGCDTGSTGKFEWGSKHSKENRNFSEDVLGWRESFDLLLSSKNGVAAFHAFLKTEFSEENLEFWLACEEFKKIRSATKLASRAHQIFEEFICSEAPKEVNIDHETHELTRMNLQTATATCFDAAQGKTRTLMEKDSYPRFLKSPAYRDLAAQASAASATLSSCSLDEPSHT
Target sequence (P09471 whole entry, looked up): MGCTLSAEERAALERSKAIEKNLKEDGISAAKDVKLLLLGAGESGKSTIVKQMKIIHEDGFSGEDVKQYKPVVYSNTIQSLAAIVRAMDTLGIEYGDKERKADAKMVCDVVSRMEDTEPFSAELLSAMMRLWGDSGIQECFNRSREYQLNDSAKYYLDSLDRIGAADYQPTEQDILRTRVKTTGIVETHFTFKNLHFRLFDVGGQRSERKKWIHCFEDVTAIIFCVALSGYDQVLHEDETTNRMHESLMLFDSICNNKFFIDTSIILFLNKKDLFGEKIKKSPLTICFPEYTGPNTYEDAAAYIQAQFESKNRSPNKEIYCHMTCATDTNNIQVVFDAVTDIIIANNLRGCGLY
GALR2 ag: activates the human galanin receptor 2 | AID 803 | 140,000 tested, 0.48% active | GALR2-expressing cells, agonist activation read-out | activation, %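 (tested at 5 µM)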;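 active = above mean plus 3 SD of all compounds, about 5% in these data, not always enough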;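 note: 0% = vehicle buffer wells and 100% = reference agonist at full effect; tested in CHO reporter cells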
Target sequence (O43603 whole entry, looked up): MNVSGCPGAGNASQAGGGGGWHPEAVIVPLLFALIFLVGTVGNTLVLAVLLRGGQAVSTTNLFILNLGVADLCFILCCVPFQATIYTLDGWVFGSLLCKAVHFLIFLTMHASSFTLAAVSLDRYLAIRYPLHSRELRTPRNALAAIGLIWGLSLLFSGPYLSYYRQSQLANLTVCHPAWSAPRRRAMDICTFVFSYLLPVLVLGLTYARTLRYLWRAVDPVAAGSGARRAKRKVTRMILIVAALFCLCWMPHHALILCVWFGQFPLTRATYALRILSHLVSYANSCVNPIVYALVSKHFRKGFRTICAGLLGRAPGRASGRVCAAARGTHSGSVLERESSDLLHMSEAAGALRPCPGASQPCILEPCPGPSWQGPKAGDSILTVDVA
Insulin prom inh cell count: second read-out of Insulin prom inh, no call of its own (marks repeat the call); normalized cell count, %; measured here: cell count, toxicity; reference of the scale not given here;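 cells exposed to compound for 48 h; stained nuclei by imaging scaled within each plate; lower means fewer cells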
HSV augment primary fold: also measured in HSV augment; calls as there; fold increase; compound at 10 µM; measured here: primary screen fold increase 10 uM; tested in PC3 cells;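 GFP signal in the first replicate; 1 = infected wells without compound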
* hit, by the source's call; i = inactive; u = inconclusive; x = not tested or not shown.

Each structure is followed by: HSV augment	HSV augment primary fold	Insulin prom inh	Insulin prom inh cell count	PKD1 inh	RGS16-Gao HTS	GALR2 ag
O=C(COc1ccc(Cl)cc1Cl)NN1C(=O)/C(=C\c2ccc(Cl)cc2)SC1=S
 : i	1.1	10	93	1	106	x
COCCNC(=O)c1ccc2ccccc2n1
 : i	0.96	-3	131	-6	82	-3.4
Cc1cc(C)n(-c2nc(SCCN(C)C)c3c4c(sc3n2)COC(C)(C)C4)n1
 : i	0.68	55	35	-4	107	0.0
Cc1ccc(-c2nc3ccccc3o2)cc1NC(=S)NC(=O)c1cccs1
 : i	0.88	0	63	1	101	-2.1
O=C(Nc1cccc(C(F)(F)F)c1)c1scc2c1OCCO2
 : i	0.97	x	x	2	98	x
O=C(Nc1cccnc1)c1cc(-c2cc(Cl)ccc2O)n[nH]1
 : i	0.83	x	x	x	105	x
COc1ccc2nc(SCc3ccccc3)nc(C)c2c1
 : i	1.1	x	x	-8	97	0.3
Cc1cc(C)n(-c2ccc(C(=O)Nc3ccc(C)c(S(=O)(=O)N4CCOCC4)c3)cc2)n1
 : i	0.76	x	x	x	99	x
CC1(C)Cc2c(c(N3CCOCC3)nc3snc(NC(=O)c4ccccc4)c23)CO1
 : i	1.1	27	88	-1	70	-1.2
COc1ccc(Nc2cc(C(=O)NCCCN3CCOCC3)c3ccccc3n2)c(OC)c1
 : i	0.91	-393	29	-4	103	-0.9

Quoted from the listing:
`COCCNC(=O)c1ccc2ccccc2n1` – RGS16-Gao HTS = 82
`COc1ccc(Nc2cc(C(=O)NCCCN3CCOCC3)c3ccccc3n2)c(OC)c1` – RGS16-Gao HTS = 103

Carrying on.
Each structure is followed by: HSV augment	HSV augment primary fold	Insulin prom inh	Insulin prom inh cell count	PKD1 inh	RGS16-Gao HTS	GALR2 ag
CCOc1ccc(C(=S)N2CCCC2)cc1
 : i	1.1	-13	86	6	120	-1.8
CC(C)c1ccc(C(=O)NNC(=O)C2CC=CCC2C(=O)O)cc1 (configuration not stated)
 : i	0.98	-20	48	4	54	-1.7
Nc1ccc2c(c1)CC(=O)c1ccccc1S2
 : i	0.93	77*	170*	2	85	0.1
COc1ccc(-c2[nH]ncc2CN(C)CCc2c(C)n[nH]c2C)c(F)c1
 : i	1	x	x	-1	95	x
Cc1ccc(S(=O)(=O)NNC(=O)CC#N)cc1
 : i	1.1	x	x	x	114	x
CC(Oc1ccccc1)c1ccnc2nc(/N=C/N(C)C)nn12 (configuration not stated)
 : i	1.1	-30	134	-8	109	-2.2
CCC(=O)N1CCc2cc(S(=O)(=O)CCC(=O)NC(C)CC)ccc21 (configuration not stated)
 : i	1	-36	112	-5	102	x
O=C(Nc1ccccn1)C(F)(F)C(F)(F)C(F)(F)C(F)(F)C(=O)Nc1ccccn1
 : i	0.97	-14	74	0	110	-0.4
CCCN(C(=S)Nc1ccccc1)C1CCS(=O)(=O)C1 (configuration not stated)
 : i	1	23	60	5	113	-0.9
O=C(O)c1cc(NCc2ccc(F)cc2)ccc1N1CCOCC1
 : i	0.89	41	128	-6	107	0.7
c1cc2nncn2nc1N1CCCC1
 : i	1	29	95	-2	102	0.0
CCN(CC)C(=O)CSc1nc2c(sc(=S)n2-c2ccccc2)c(=O)n1Cc1ccco1
 : i	0.85	8	57	-2	94	0.6
O=C(c1ccccc1NS(=O)(=O)c1ccc(Br)s1)N1CCCC1
 : i	1.1	54	100	-4	99	-1.8
CCCCCCC(=O)N/N=C1\CCCc2ccccc21
 : i	1.1	7	108	-4	90	1.2
CCOc1ccc(C2C(C(=O)c3ccc(C)o3)=C(O)C(=O)N2CCCN(CC)CC)cc1 (configuration not stated)
 : i	0.95	x	x	x	96	x
COc1ccc(CC(NC(C)=O)C(=O)NC2CCN(S(=O)(=O)c3ccccc3)CC2)cc1OC (configuration not stated)
 : i	1.1	x	x	-4	95	-1.5
Cc1ccc(C)c(S(=O)(=O)N2CCN(c3ncccn3)CC2)c1
 : i	0.97	x	x	6	103	x
O=C(Nc1nnc(-c2ccccc2)o1)c1cc(Cl)sc1Cl
 : i	1.1	4	105	-5	36	-0.4
CCOc1ccccc1/C=C(\C#N)C(=O)Nc1cccc(C(=O)O)c1
 : i	0.89	x	x	x	109	x
COc1ccc(N2CCN(C(=O)c3ccccc3Br)CC2)c([N+](=O)[O-])c1
 : i	1	x	x	-2	101	x
N#Cc1cc(Br)ccc1N=C1CCCN1c1ccccc1
 : i	0.96	-22	71	-3	55	0.5
N#C/C(C(=O)NCc1ccccc1)=C1/N=C(NC(=O)c2cccs2)c2ccccc21
 : u	x	-55	129	1	102	-2.9
COC(=O)c1c(NC(=O)C2CC2)sc2c1CCCC2
 : i	0.98	x	x	-6	98	-3.8
O=C(N/N=C/C=C/c1ccco1)c1cccs1
 : i	0.97	x	x	4	100	x
CCCNc1c(N)c(=O)oc2ccccc12
 : i	0.91	65	68	6	98	0.0
Cc1cc(O)c2/c(=N\N)c(-c3csc(C)n3)coc2c1
 : i	1.1	x	x	x	102	x
O=Cc1cn(-c2ccccc2)nc1-c1ccc2c(c1)OCCO2
 : i	0.89	50	151	-11	95	-0.6
COc1cc(N2C(=O)c3ccccc3C2=O)c(Cl)cc1C(=O)OCC(=O)N(C)C
 : i	1	x	x	4	97	x
CN=C1SC(CC(=O)Nc2cc(Cl)ccc2Cl)C(=O)N1C (configuration not stated)
 : i	1	-9	100	-3	111	-3.5
COc1cc2c(=O)n(Cc3ccco3)c(=O)n(CC(=O)c3ccc(Br)cc3)c2cc1OC
 : i	1.1	-3	99	2	100	-0.2
CCOC(=O)Cc1csc(NC(=O)CCCC(=O)O)n1
 : i	0.92	x	x	x	99	x
COc1cccc(-c2ccc(SCC(=O)c3ccccc3)nn2)c1
 : i	0.82	78*	76*	4	100	x
Cc1ccc(C)c(NC(=O)COC(=O)CCC(=O)c2cccs2)c1
 : i	0.99	x	x	-1	95	x
O=C(NCCCO)c1ccc2[nH]c3ccccc3c2c1
 : i	0.82	x	x	-12	88	-1.1
Cc1cccc(NC(=O)CS(=O)(=O)Cc2ccccc2)n1
 : i	0.93	0	104	-11	105	-2.0
COC(=O)C/C(N)=C(\C#N)C(=O)OC
 : i	0.93	x	x	x	101	x
Cc1ccc(CC2CC(=O)N(c3nc4ccccc4s3)C2=O)cc1 (configuration not stated)
 : i	0.92	x	x	-5	109	x
Cc1[nH]c(=O)[nH]c(=O)c1S(=O)(=O)N1CCC(C(=O)N2CCN(c3cccc(C(F)(F)F)c3)CC2)CC1
 : i	0.82	x	x	4	98	x
Cn1c(SCC(=O)NNC(=O)Cc2ccccc2)nnc1-c1ccccc1
 : i	1.1	-9	81	0	109	-0.2
CSc1ccccc1NS(=O)(=O)c1ccc2c(c1)OCCO2
 : i	1	-78	74	0	83	-1.8
Cc1ccc2c(c1)N(CC(=O)N1CCCCC1c1cccnc1)C(=O)CO2 (configuration not stated)
 : i	0.9	-29	105	1	103	-0.7
Cc1cc(C(=O)COC(=O)CN=C2NS(=O)(=O)c3ccccc32)c(C)n1CCc1ccc(Cl)cc1
 : i	0.96	0	110	-6	89	-0.5
Cc1ccccc1-n1nc(SCC(=O)O)sc1=S
 : i	0.96	-80	68	-6	82	x
CC(=O)Nc1nc(C(F)(F)F)cs1
 : i	0.95	x	x	-4	98	-1.6
O=S(=O)(c1cccc(NC(=S)N2CCN(c3ccccc3)CC2)c1)C(F)F
 : i	1.1	x	x	-10	107	-0.3
O=C(c1ccc(C(F)(F)F)cc1)C1CCCN(C(=O)CCN2CCCO2)C1 (configuration not stated)
 : i	0.95	x	x	3	99	x
Fc1ccc(-n2nnc(-c3cccnc3)n2)cc1
 : i	0.97	x	x	-2	98	x
CCN1C(=O)/C(=C/c2ccc(OC)c(OC)c2)N=C1SCC(=O)NCc1ccco1
 : i	1	27	99	-5	89	-3.0
Cc1cc(NC(=O)COC(=O)c2cc3c(s2)CCC(C)C3)no1 (configuration not stated)
 : i	0.84	3	148	-6	109	-2.2
COCC(=O)NC1CCCCCC1
 : i	0.91	x	x	x	100	x

The list goes on.
Each structure is followed by: HSV augment	HSV augment primary fold	Insulin prom inh	Insulin prom inh cell count	PKD1 inh	RGS16-Gao HTS	GALR2 ag
COC(=O)C(CCSC)NC(=O)c1cccc([N+](=O)[O-])c1 (configuration not stated)
 : i	1.1	-10	69	-3	94	-2.7
CCc1ccccc1N1C(=O)c2ccccc2S1(=O)=O
 : i	1	11	185	-13	102	-0.1
CCc1ccc(C(=O)/C=C/c2ccc([N+](=O)[O-])o2)cc1
 : i	0.78	-160	41	-3	97	-0.5
CCOc1ccc(N/C(=N/c2nc(C)cc(C)n2)NC(C)=O)cc1
 : i	1	x	x	x	96	x
Cc1csc(SCC(=O)Nc2sccc2C(N)=O)n1
 : i	1.1	x	x	-1	100	x
COCCOc1ccc(C(F)(F)F)cc1Nc1nc2ccccc2o1
 : i	0.75	x	x	-7	104	0.0
CC(Oc1ccccc1)C(=O)N/N=C/c1ccccn1 (configuration not stated)
 : i	1	-53	92	-2	102	x
CC(C)Oc1ccc(C(=O)Nc2ccccc2N2CCCC2)cc1
 : i	1	0	65	1	97	-1.7
CCC(CC)C(=O)Nc1ccc([N+](=O)[O-])cn1
 : i	1	x	x	4	106	x
CCCCn1c(N)c(N(Cc2ccccc2OC)C(=O)COc2ccccc2C#N)c(=O)[nH]c1=O
 : i	0.97	x	x	x	104	x

Shown as tab-separated lines: twelve of the compounds above
mol	HSV augment	HSV augment primary fold	Insulin prom inh	Insulin prom inh cell count	PKD1 inh	RGS16-Gao HTS	GALR2 ag
Cc1cc(NC(=O)COC(=O)c2cc3c(s2)CCC(C)C3)no1 (configuration not stated)	i	0.84	3	148	-6	109	-2.2
COCC(=O)NC1CCCCCC1	i	0.91	x	x	x	100	x
COC(=O)C(CCSC)NC(=O)c1cccc([N+](=O)[O-])c1 (configuration not stated)	i	1.1	-10	69	-3	94	-2.7
CCc1ccccc1N1C(=O)c2ccccc2S1(=O)=O	i	1	11	185	-13	102	-0.1
CCc1ccc(C(=O)/C=C/c2ccc([N+](=O)[O-])o2)cc1	i	0.78	-160	41	-3	97	-0.5
CCOc1ccc(N/C(=N/c2nc(C)cc(C)n2)NC(C)=O)cc1	i	1	x	x	x	96	x
Cc1csc(SCC(=O)Nc2sccc2C(N)=O)n1	i	1.1	x	x	-1	100	x
COCCOc1ccc(C(F)(F)F)cc1Nc1nc2ccccc2o1	i	0.75	x	x	-7	104	0.0
CC(Oc1ccccc1)C(=O)N/N=C/c1ccccn1 (configuration not stated)	i	1	-53	92	-2	102	x
CC(C)Oc1ccc(C(=O)Nc2ccccc2N2CCCC2)cc1	i	1	0	65	1	97	-1.7
CCC(CC)C(=O)Nc1ccc([N+](=O)[O-])cn1	i	1	x	x	4	106	x
CCCCn1c(N)c(N(Cc2ccccc2OC)C(=O)COc2ccccc2C#N)c(=O)[nH]c1=O	i	0.97	x	x	x	104	x

More structures follow.
Each structure is followed by: HSV augment	HSV augment primary fold	Insulin prom inh	Insulin prom inh cell count	PKD1 inh	RGS16-Gao HTS	GALR2 ag
CCOC(=O)N1CCN(C(=O)COc2cccc3c2CCN(CC)C3=O)CC1
 : i	0.92	42	122	5	92	x
CCOc1cc(C(=O)N2CCN(c3ccc(C(C)=O)cc3)CC2)cc(OCC)c1OCC
 : i	1	8	88	5	101	-0.8
COc1ccccc1-n1c(SCC(=O)N2CCCC2)nnc1-c1ccccc1
 : i	0.95	x	x	x	112	x
CC(C)[C@H](NC(=O)NC1CCCC1)C(=O)O
 : i	0.97	-34	61	-2	102	-1.7
COc1cccc(/C=N/n2cncn2)c1OCC#N
 : i	1.1	0	121	0	95	-0.3
O=C(COC(=O)CCOc1ccccc1)Nc1ccc(Cl)cn1
 : i	0.89	-26	94	-2	102	-1.0
Cc1nnc(SCC(=O)N2CCC(C(N)=O)CC2)s1
 : i	1	57	132	-7	101	-1.1
Cc1nnn(C23CC4CC(CC(C(=O)NN)(C4)C2)C3)n1
 : i	1	-325	84	6	107	-0.4
Cc1ccc(N(C(=O)c2csnn2)C(C(=O)NC(C)(C)C)c2ccncc2)cc1 (configuration not stated)
 : i	0.76	-17	65	-11	105	-0.7
CCc1ccc(/C=N/NC(=O)c2c[nH]c3ccccc23)s1
 : i	0.88	46	77	4	104	-0.9
COc1ccc(C(=O)N/N=C/c2ccc(OC)c(CN3CCN(c4ccc(F)cc4)CC3)c2)cc1
 : i	1	-25	23	-1	108	-1.8
CCOC(=O)C(=CNc1cc(Cl)c(-c2ccco2)c(Cl)c1)C(=O)OCC
 : i	0.88	x	x	x	101	x
CN(C)Cc1c(-c2ccc(Cl)cc2)nc2ccc(Cl)cn12
 : i	0.98	x	x	2	98	x

Screening data: PubChem BioAssay, several laboratories
